Bioassay records (PubChem)
TRPML1 blocker: human mucolipin-1 channel inhibition; TRPML1-inducible cells, Ca2+ dye fluorescence, FDSS; active compounds read low; inhibition of EC80 agonist-evoked calcium signal; 390,000 compounds, 0.02% hits; activity change, negative = inhibition, % (no concentration beside the values); in the data active means activity change below about -50%; inconclusive means about -30% to -50%; inactive means above about -30%;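 further: stimulus is agonist 54-4 at its EC80 concentration; on the % scale 0 is the no-effect control and ±100 the full control effect; compound concentration not given in the record; the text of the record puts the active cut at -80%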
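TRPML1-DL cells, Tet-induced overnight (~16 h, 37 °C) at 1,500 cells/well, were loaded with Ca8 no-wash dye plus quencher for 45-90 min at room temperature. Compounds were pinned during FDSS kinetic reading; agonist 54-4 at EC80 (4 uM final) then added.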
gsp antagonist: antagonists of gsp mutant (McCune-Albright syndrome) | Potency, µM (doses to about 76.9 µM), inactives show at the highest dose activity change, negative = inhibition, most hits filed as inhibitors | AID 624288 | 340,000 compounds, 0.4% hits | gsp-mutant cells, cAMP HTRF, 30 min; control for the full effect not named in the record; active = falling curve of any shape with a large fitted effect; inconclusive = falling curve, mostly with a smaller effect; inactive = flat or rising curve; cell line not stated here;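 further: intracellular cAMP measured with PDE inhibitor Ro 20-1724 present during compound exposure; potency means the concentration at half of the fitted maximal effect; on the % scale 0 is the no-effect control and ±100 the full control effect; nearly all actives have a fitted effect of over 65% in size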
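HTRF cAMP read-out (cAMP-d2 plus anti-cAMP antibody-K in lysis buffer, 30 min RT). Before lysis, cells are exposed to compounds with […] for 30 min at 37C in DPBS containing Ca/Mg, BSA and Tween 20.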
TRPV1 potentiator: potentiators of human vanilloid receptor 1 (TRPV1); Q8NER1; TRPV1-expressing cells, Fluo-8 calcium influx, capsaicin EC20 potentiation; host cell line not named in the record; control for the full effect not named in the record; potentiation, % at 8.33 µM; 320,000 compounds, 0.02% hits; AID 540277; active means potentiation above 80%; inconclusive means 30% to 80%; inactive means below 30%; further: 0% is about no effect
Target sequence (Q8NER1 whole entry, looked up): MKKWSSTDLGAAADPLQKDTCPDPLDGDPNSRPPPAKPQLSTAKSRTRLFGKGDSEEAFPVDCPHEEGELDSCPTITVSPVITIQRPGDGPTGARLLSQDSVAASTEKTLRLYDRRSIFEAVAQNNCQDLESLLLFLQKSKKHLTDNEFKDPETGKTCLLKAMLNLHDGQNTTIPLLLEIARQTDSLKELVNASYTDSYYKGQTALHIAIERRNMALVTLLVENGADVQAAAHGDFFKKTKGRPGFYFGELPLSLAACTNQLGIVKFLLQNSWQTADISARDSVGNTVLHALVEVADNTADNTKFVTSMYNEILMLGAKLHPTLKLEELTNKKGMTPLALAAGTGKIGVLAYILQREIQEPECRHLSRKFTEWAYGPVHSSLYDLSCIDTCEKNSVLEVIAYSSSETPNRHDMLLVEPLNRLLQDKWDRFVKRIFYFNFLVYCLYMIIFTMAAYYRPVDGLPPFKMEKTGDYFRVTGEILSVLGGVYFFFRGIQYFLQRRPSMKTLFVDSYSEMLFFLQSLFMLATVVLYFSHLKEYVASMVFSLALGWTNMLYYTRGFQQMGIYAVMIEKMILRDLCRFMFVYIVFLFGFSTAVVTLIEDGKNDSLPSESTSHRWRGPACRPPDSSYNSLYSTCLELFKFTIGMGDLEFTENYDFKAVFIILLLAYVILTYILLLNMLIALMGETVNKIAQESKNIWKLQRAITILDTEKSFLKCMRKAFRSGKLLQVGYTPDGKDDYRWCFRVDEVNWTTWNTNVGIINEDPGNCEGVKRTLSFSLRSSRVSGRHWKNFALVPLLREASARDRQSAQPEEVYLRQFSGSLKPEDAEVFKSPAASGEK
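Fluo-8 calcium influx in TRPV1-expressing cells, kinetic read (ex 480/em 520 nm). Compound added and read 3 min for agonist activity, followed by capsaicin at EC20 final and 2 min further read for enhancement.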
Sfp inh: inhibitors of Bacillus subtilis Sfp phosphopantetheinyl transferase; 310,000 compounds, 3.5% hits; Q9F4F7; Potency, µM, for inactives: max response, negative = inhibition, most hits filed as inhibitors; AID 1490; Biochemical Sfp PPTase activity, qHTS; active means well fitted inhibition curve with a large enough effect; inconclusive means small, poorly fitted or top-dose-only effect, or another doubt; inactive means no such curve, though single readings can be large or run the other way;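 further: the enzyme is Sfp with the accession as filed and its product quenches rhodamine fluorescence; potency means the concentration at half of the fitted maximal effect; 0% = enzyme reaction without inhibitor and -100% = no enzyme wells; top concentration of the series not given in the record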
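Fluorescence-quenching assay: 15 nM Sfp-PPTase preincubated 15 min at room temperature with compound, then 5 uM rhodamine-CoA and 12.5 uM BHQ-2-labelled YbbR peptide added. Fluorescence (ex 525/em 598 nm) read at start and after 30 min; difference gives rate.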
Menin-MLL FL inh: displaces fluorescein MLL peptide from human menin; Fluorescence polarization, fluorescein-MLL peptide displacement from menin; 290,000 tested, under 10 active; FP activity change, % at 61.4 µM; inconclusive = falling polarisation curve, or a change in total fluorescence; inactive = total fluorescence flat and polarisation flat or rising; no compound was filed as active; the % refers to the polarisation; negative = inhibition;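 further: % of control where 0% means no effect; inhibitors lower the polarisation; unlabelled MLL peptide was the positive control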
gsp ag: gsp mutant agonism; AID 624287; Potency, µM (highest dose often 76.9 µM), for the others: at the highest dose activation (cAMP increase), most hits filed as activators; gsp mutant cells, cAMP HTRF, 30 min; control for the full effect not named in the record; 340,000 compounds, 0.13% hits; active = well fitted activation curve with a large enough effect; inconclusive = small, poorly fitted or top-dose-only effect, or another doubt; inactive = no such curve, though single readings can be large or run the other way; cell line not stated here;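 further: phosphodiesterase inhibitor Ro 20-1724 added with compounds to block cAMP breakdown; potency means the concentration at half of the fitted maximal effect; nearly all actives have a fitted effect of over 60% in size; about a fifth of the inactives were tested at one dose only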
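Cells in DMEM/10% FBS with G418 were pretreated with compounds in DMSO plus […] (300 uM stock) for 30 min at 37C. cAMP was measured by HTRF (cAMP-d2 plus anti-cAMP antibody-K) after 30 min at room temperature.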
ClpP mod: qHTS Assay for Activators of ClpP; ATP-dependent Clp protease proteolytic subunit (Bacillus subtilis (strain 168)), P80244; purified B. subtilis ClpP, FRET peptide cleavage, 20 min; Potency, µM (highest dose often 57.5 µM), for inactives: at the highest dose activity change, negative = active; 340,000 compounds, 1.9% hits; AID 651965, 2013; active = well fitted falling curve with a large enough effect; inconclusive = small, poorly fitted or top-dose-only effect; inactive = no such curve, though single readings can be large or run the other way; further: potency means the concentration at half of the fitted maximal effect; the source files actives as falling curves though it sought activators and does not explain the sign; nearly all actives have a fitted effect of over 65% in size; many hits overshoot -100%
Target sequence (P80244 whole entry, looked up): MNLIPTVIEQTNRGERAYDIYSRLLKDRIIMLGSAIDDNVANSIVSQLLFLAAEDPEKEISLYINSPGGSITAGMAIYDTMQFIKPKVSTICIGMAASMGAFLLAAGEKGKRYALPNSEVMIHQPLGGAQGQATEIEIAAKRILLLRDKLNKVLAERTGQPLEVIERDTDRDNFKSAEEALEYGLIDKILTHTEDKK
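ClpP 10 microg/mL final, pH 8 Tris/KCl buffer with BSA, glycerol, Tween-20; compound pinned in; FRET-FV substrate; RT 20 min; Ex320/Em430; ΔFRET vs ADEP 5.8 microM, DMSO, no enzyme.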
Numbers without * were called inactive; ? = inconclusive; / = no result given; & = joins results of further samples; [ ] = remark or other dose.

Codes: A = TRPML1 blocker; B = gsp antagonist; C = TRPV1 potentiator; D = Sfp inh; E = Menin-MLL FL inh; F = gsp ag; G = ClpP mod
COc1ccc(C(=O)Nc2sc(C)c(C)c2CN2CC(C)OC(C)C2)cc1 (stereo not given)
  A: 27; B: 3%; C: -27; D: 2%; E: 5.2; F: -1%[15.4 µM]; G: 1.2%

O=C(NCC1CCCO1)c1cn(Cc2ccccc2Cl)nc1-c1ccccc1 (stereo not given)
  A: -3; B: -12%; C: -8; D: /; E: /; F: -12%[15.4 µM]; G: /

CN1CCN(c2ccccc2NC(=O)c2ccc([N+](=O)[O-])cc2Cl)CC1
  A: -6; B: -3%; C: -12; D: 0%; E: -9.9; F: 8%; G: /

COc1ccc2c(-c3ccccc3)cc(SCC(=O)N(C)C)nc2c1
  A: 7; B: ?; C: -13; D: -16%; E: 2.2; F: -2%[15.4 µM]; G: -20%

CCCc1cc(=O)oc2c(C)c(OCC(=O)NCCCN3CCOCC3)ccc12
  A: 2; B: -2%; C: 0; D: 16%; E: /; F: 1%; G: 3.6%

C=CCN1CCN(C(=O)c2cc3c(s2)CCC(CC)C3)CC1 (stereo not given)
  A: -4; B: 3%; C: -3; D: 8%; E: 0.2; F: 1%; G: -0.6%

COc1ccc(OC)c(/C=C/c2ccnc3ccccc23)c1
  A: 0; B: 19%; C: /; D: /; E: /; F: ?; G: ?

CC(C)C(c1nnnn1Cc1ccc(F)cc1)N1CCN(C(=O)c2ccco2)CC1 (stereo not given)
  A: 10; B: -6%; C: 7; D: 12%; E: -1.5; F: 1%; G: ?

O=C(c1cccc(F)c1F)N1CCCC1
  A: 5; B: 10%; C: -6; D: 19%; E: 0.5; F: ?; G: 1.1%

O=S(=O)(c1ccc(F)cc1)N1CCN(C(=S)NCC2CCCO2)CC1 (stereo not given)
  A: 0; B: 5%; C: -4; D: /; E: /; F: 8%[15.4 µM]; G: -3.3%

Cc1cc(NC(=O)COC(=O)C2CC2)ccc1Br
  A: -9; B: 6%; C: -6; D: /; E: /; F: 11%; G: -2.3%

C/C(=C\C(=O)c1ccccc1)NCc1ccc(F)cc1
  A: 18; B: -10%; C: 13; D: 2%; E: -1.0; F: 18%; G: -1.5%

COC(C(=O)Nc1ccccc1F)c1ccccc1 (stereo not given)
  A: -2; B: 9%; C: 0; D: 4%; E: 4.3; F: 16%; G: 1.9%

COCCNC(=O)/C(C#N)=C/c1ccc(C(=O)O)cc1
  A: 3; B: 2%; C: 10; D: 10%; E: 1.4; F: ?; G: -0.5%

O=C(O)/C(=C1/OC(=O)c2ccccc21)c1ccccc1
  A: -14; B: -2%; C: 29; D: 0%; E: 1.5; F: -6%; G: 53%

O=C(COC(=O)C1CCC1)Nc1ccc(Cl)cn1
  A: 0; B: -1%; C: /; D: /; E: /; F: 14%; G: /

CCOC(=O)C1CCCCN1Cc1cc(Cl)ccc1O (stereo not given)
  A: 5; B: -7%; C: 3; D: 3%; E: 3.5; F: -29%; G: -0.1%

CCc1ccc(C(=O)NNC(=O)CCc2nc3ccccc3c(=O)[nH]2)cc1
  A: -3; B: 4%; C: -7; D: /; E: /; F: -6%[15.4 µM]; G: /

Cc1cc(C)c2c(c1)c(C)cc1nnc(SCC(=O)c3cccs3)n12
  A: 12; B: -11%; C: -1; D: 16%; E: 1.8; F: -40%[inhibitor]; G: -2.1%

CC(C)C(=O)NNC(=O)CSc1nc(C2CCCCC2)nc2ccccc12
  A: 14; B: 3%; C: 5; D: -2%; E: 0.2; F: -9%; G: /

COc1cc(S(=O)(=O)NCc2ccc3c(c2)OCO3)c(OC)cc1C
  A: 18; B: -1%; C: -2; D: 3%; E: -2.3; F: -2%[15.4 µM]; G: -1.3%

O=S(=O)(CCN1CCSCC1)c1ccccc1
  A: 3; B: 2%; C: -2; D: 8%; E: 2.5; F: 11%[15.4 µM]; G: -2.4%

CCCOc1ccc(CSc2nc3ccccc3[nH]2)cc1
  A: 3; B: -28%; C: -8; D: 16%; E: 0.3; F: 0%; G: -1.2%

C=CCc1c(C)nc(-c2ccccc2)nc1N/N=C/c1ccncc1
  A: -9; B: -2%; C: -18; D: 20%; E: 4.5; F: -20%; G: -3.1%

O=C(/C=C/c1ccccc1Cl)Nc1cccc(O)c1
  A: -2; B: -24%; C: 6; D: ?; E: -1.6; F: -5%; G: -0.6%

O=C(O)CCCCCNC(=O)Cn1nnc2ccccc2c1=O
  A: -3; B: 4%; C: 6; D: 27%; E: 0.5; F: 0%; G: -2.2%

COc1ccc(N2CCN(c3ccc(N4C(=O)COCC4=O)cc3[N+](=O)[O-])CC2)cc1
  A: -30; B: -6%; C: -12; D: 12%; E: 5.6; F: -2%; G: 28µM*

CC(=O)Nc1ccc(C(=O)NCCc2ccccc2)cc1
  A: -17; B: 10%; C: 11; D: 2%; E: -0.3; F: 14%; G: -5.2%

CCOc1cc(/C=N/NC(=O)CNc2ccc(C)cc2)ccc1OC(=O)c1ccccc1
  A: -8; B: -14%; C: 2; D: -10%; E: -1.1; F: 5%; G: -1.1%

COc1ccc(Nc2nc(Cl)nc(Nc3ccc(OC)cc3)n2)cc1
  A: 10; B: 12%; C: -4; D: 18%; E: 0.9; F: 11%[15.4 µM]; G: /

The last 2 records of the section above lead into the next.
Codes: A = TRPML1 blocker; B = gsp antagonist; C = TRPV1 potentiator; D = Sfp inh; E = Menin-MLL FL inh; F = gsp ag; G = ClpP mod
CCOc1cc(/C=N/NC(=O)CNc2ccc(C)cc2)ccc1OC(=O)c1ccccc1
  A: -8; B: -14%; C: 2; D: -10%; E: -1.1; F: 5%; G: -1.1%

COc1ccc(Nc2nc(Cl)nc(Nc3ccc(OC)cc3)n2)cc1
  A: 10; B: 12%; C: -4; D: 18%; E: 0.9; F: 11%[15.4 µM]; G: /

Cc1ccc2[nH]c3c(c2c1)CN(C(=O)CN1CCN(c2ccccc2F)CC1)CC3
  A: /; B: /; C: 1; D: 0%; E: ?; F: /; G: /

Cc1onc(-c2ccccc2Cl)c1C(=O)O/N=C(\N)c1ccccc1
  A: -15; B: -29%; C: 9; D: 12%; E: /; F: -6%; G: -0.6%

C[C@H]1CCC(=O)N([C@H](CSc2ccccc2)Cc2ccccc2)CC1
  A: 54; B: -30%; C: -18; D: 1%; E: -3.6; F: 10%; G: 0.7%&-1.6%

O=C(NNc1nc(-c2ccc(Br)cc2)cs1)c1ccco1
  A: 5; B: -12%; C: 24; D: -10%; E: -0.9; F: -32%; G: 1.3%

CCOC(=O)c1ccccc1NC(=O)c1ccc2c(SCC(=O)O)c3c(nc2c1)CCCC3
  A: 4; B: -20%; C: 18; D: -29%; E: 12; F: 5%; G: -0.8%

COc1ccccc1N(CC(=O)NC1CCCC1)C(=O)C1(C)CC(=O)N=C2C=CC(C)=CN21 (stereo not given)
  A: 6; B: 0%; C: -11; D: 6%; E: 0.3; F: 21%[15.4 µM]; G: -0.9%

Cc1ccc(C2N(c3cccc(Cl)c3)C(=O)N3CCCN23)cc1 (stereo not given)
  A: -4; B: -16%; C: ?; D: -4%; E: 3.3; F: -7%; G: 2.3%

O=C(N/N=C/c1cccs1)c1cccnc1
  A: -4; B: -3%; C: -9; D: 19%; E: -1.3; F: ?; G: /

CN(CC(=O)Nc1cc(Cl)ccc1Cl)C1CCS(=O)(=O)C1 (stereo not given)
  A: 28; B: 19%; C: 4; D: /; E: /; F: ?; G: 0.0%

Cc1c(NC(=O)CSc2ncnc3c2cnn3-c2ccccc2)c(=O)n(-c2ccccc2)n1C
  A: 32; B: ?; C: 12; D: /; E: /; F: -4%; G: 3.6%

CC1CCCC(NC(=O)COC(=O)c2ccccc2[N+](=O)[O-])C1C (stereo not given)
  A: 11; B: -4%; C: 3; D: 15%; E: 4.3; F: 13%[15.4 µM]; G: /

Nc1nc(SCc2ccccc2)c2ncn(C3CCCCC3)c2n1
  A: 1; B: -12%; C: /; D: /; E: /; F: -5%; G: /

CCOC(=O)CSc1nc2cc(C)cc(C)c2cc1C#N
  A: 31; B: 8%; C: -17; D: -3%; E: 1.6; F: 23%; G: -12%

Cc1cc2cc(CNC(=O)NC3CCCCC3)ccc2n1C
  A: 3; B: -5%; C: -15; D: -3%; E: -12; F: -6%; G: -15%

O=[N+]([O-])c1ccc(OCC(O)CN2CCN(c3ccccc3F)CC2)cc1 (stereo not given)
  A: 4; B: 9%; C: -7; D: 4%; E: 1.9; F: 28%; G: -1.7%

Cc1cc(C)c2[nH]c(=O)c(C(c3nnnn3C3CCCC3)N3CCOCC3)cc2c1 (stereo not given)
  A: /; B: /; C: -10; D: -7%; E: 7.4; F: /; G: /

NS(=O)(=O)c1ccc(CCNC(=O)CCC2COc3ccccc3O2)cc1 (stereo not given)
  A: 36; B: -1%; C: -8; D: 18%; E: 2.0; F: -9%; G: -2.4%

CCCOc1ccc(/C=N/O)cc1
  A: 7; B: 7%; C: -5; D: 4%; E: 0.2; F: 3%; G: -0.8%

COc1cc2c(cc1OC)C(c1ccccc1)N(S(C)(=O)=O)CC2 (stereo not given)
  A: -24; B: 6%; C: -10; D: 1%; E: -0.1; F: -23%; G: -0.3%

COc1cccc(C(=O)NCCSCc2ccccc2Cl)c1
  A: -11; B: 3%; C: 2; D: 9%; E: -1.3; F: 0%; G: -2.2%

Cc1cc(CNC(=O)CCc2nnc(CCCc3ccccc3)o2)nn1C
  A: -5; B: -3%; C: 0; D: 16%; E: 0.8; F: ?; G: -0.8%

O=C(Nc1cc(S(=O)(=O)N2CCCCC2)ccc1N1CCCCC1)c1ccncc1
  A: 5; B: -7%; C: -19; D: -5%; E: 0.2; F: 25%; G: -0.7%

CCOC(=O)N1CCN(C(=O)CN(C2CCCCC2)S(=O)(=O)c2ccc(C)cc2)CC1
  A: 17; B: 3%; C: -4; D: 21%; E: 4.0; F: -3%; G: -0.5%

Cc1nc(NC(=O)c2ccccc2)sc1C1(C)CC(c2ccccc2F)=NO1 (stereo not given)
  A: 1; B: -7%; C: -9; D: -17%; E: 17; F: /; G: -7.5%
